From PubChem BioAssay
KCNQ2 pot = potentiators of rat KCNQ2 potassium channel; CHO-K1 KCNQ2, FluxOR thallium flux fluorescence; stronger effect = higher value; 310,000 compounds, 0.54% hits; B-score at 10 µM;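 active means fluorescence ratio B-score at least 3 SD of library B-scores, with initial fluorescence B-score within 3 SD, cut at about 5.3 in these data; same plate scores as AID 2156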;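 further: B-score of peak minus minimum over baseline fluorescence ratio after K+ and Tl+ stimulus; positive B-score means potentiation of KCNQ2 with more thallium influx and brighter signal; only the inactives scoring about 0 or higher are listed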
Target sequence (O88943 whole entry, looked up): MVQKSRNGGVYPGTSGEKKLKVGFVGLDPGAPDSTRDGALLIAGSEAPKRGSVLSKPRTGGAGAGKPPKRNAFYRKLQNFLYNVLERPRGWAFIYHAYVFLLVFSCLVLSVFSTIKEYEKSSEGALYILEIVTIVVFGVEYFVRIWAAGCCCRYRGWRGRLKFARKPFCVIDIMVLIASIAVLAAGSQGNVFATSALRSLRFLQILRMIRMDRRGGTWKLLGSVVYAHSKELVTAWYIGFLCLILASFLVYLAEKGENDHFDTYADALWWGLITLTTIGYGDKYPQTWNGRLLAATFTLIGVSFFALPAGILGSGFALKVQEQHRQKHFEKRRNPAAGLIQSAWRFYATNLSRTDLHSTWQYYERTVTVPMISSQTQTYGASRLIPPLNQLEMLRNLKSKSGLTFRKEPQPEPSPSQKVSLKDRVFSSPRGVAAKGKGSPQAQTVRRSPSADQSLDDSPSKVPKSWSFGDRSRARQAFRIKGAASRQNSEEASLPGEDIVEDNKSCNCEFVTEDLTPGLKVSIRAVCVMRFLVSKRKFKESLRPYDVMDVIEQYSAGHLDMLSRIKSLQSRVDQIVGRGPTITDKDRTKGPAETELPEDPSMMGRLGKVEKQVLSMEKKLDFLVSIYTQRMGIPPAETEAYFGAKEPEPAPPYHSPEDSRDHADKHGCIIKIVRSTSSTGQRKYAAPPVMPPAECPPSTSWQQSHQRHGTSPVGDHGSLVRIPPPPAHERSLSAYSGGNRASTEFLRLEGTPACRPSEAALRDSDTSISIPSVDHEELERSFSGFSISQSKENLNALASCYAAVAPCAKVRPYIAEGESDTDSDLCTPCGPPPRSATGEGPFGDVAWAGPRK
KCNQ2 pot baseline = also measured in KCNQ2 pot; calls as there; B-score; compound at 10 µM; measured here: initial fluorescence intensity artifact check;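 brightness before thallium and not channel activity; 0 = typical well and far values either way flag optical interference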
Numbers without * were called inactive. This is a subset; the hit share may differ from the screen's.

KCNQ2 pot | KCNQ2 pot baseline | structure
0.54 | 0.5 | CCCCCCCCCCNC(=O)CCn1[nH]c(=O)c2ccccc2c1=O
0.06 | -0.3 | O=C(NC(=S)NCCc1ccccc1)c1ccccc1
0.03 | -0.03 | CCOc1ccc(N2CC(C(=O)Nc3ncccc3C)CC2=O)cc1 (stereo not given)
0.75 | -0.38 | O=S(=O)(c1cccc(-c2nc3ccccc3s2)c1)N1CCOCC1
1 | -0.94 | Cc1cccc(S(=O)(=O)CC(=O)Nc2nc(-c3ccccc3)cs2)c1
0.06 | 1.6 | Cc1nc2c(C)cccc2c2c1CCS2
0.59 | 0.02 | Cc1cnc(C(=O)Oc2c(C)ccc(C)c2C)cn1
0.39 | -0.09 | O=C(NCc1cn2ccccc2n1)c1ccc2c(c1)OCO2
1.9 | 0.23 | Cc1ccc(Nc2nc(Cl)c(C=O)s2)cc1
0.2 | 2 | C[C@H]1CCC(=O)N([C@H](CC#N)Cc2ccccc2)CC1
3.8 | 0 | O=C(CSc1cccc[n+]1[O-])N1CCCCCC1
1.1 | -0.88 | COc1cc(CN(CC2CCCO2)C(=O)c2cccs2)cc(OC)c1OC (stereo not given)
0.44 | 0.54 | NC(=O)CC[C@@H]1NC(=O)[C@H](CO)NC(=O)c2cc([N+](=O)[O-])cc(I)c2NCC[C@@H](C(N)=O)NC1=O
0.47 | 1.1 | CNc1c([N+](=O)[O-])cnn1-c1ccc(Cl)cc1Cl
0.62 | -0.03 | N#Cc1cn(-c2ccccc2)nc1-c1ccc2c(c1)OCCO2
0.04 | 0.54 | O=S(=O)(c1ccc(Cl)cc1)n1c(Cc2ccccc2)nc2ccccc21
0.06 | 1.2 | CCCN(C(=O)COC(=O)CNC(=O)c1ccc2ccccc2c1)c1c(N)n(Cc2ccccc2)c(=O)[nH]c1=O
0.7 | 0.02 | O=C(NCc1ccccc1Cl)C1CCN(c2ncnc3c2nc2n3CCCCC2)CC1
0.12 | -0.2 | Cc1nc2nc(SCC(=O)O)nn2c(C)c1Cc1ccccc1Cl
2.3 | -1 | Cc1ccc(NC(=O)CCC(=O)NNC(=O)C(c2ccccc2)c2ccccc2)c(C)c1
0.8 | 0.34 | CC1CCN(C(=O)CN2C(=O)C(C)(C)Oc3ccc(C(=O)NC4CCCC4)cc32)CC1
1 | -1 | COc1ccc(Cc2nc3ccc(C(=O)NCCc4ccccn4)cc3o2)cc1OC
0.75 | 0.5 | O=C(CCn1cccn1)N1CCCC(N2CCN(c3cccc(C(F)(F)F)c3)CC2)C1 (stereo not given)
1.7 | -2.5 | CN1CCN(S(=O)(=O)c2ccc(N(C)CC(=O)Nc3ccc(F)cc3)nc2)CC1

For convenience, six of the compounds above:
KCNQ2 pot | KCNQ2 pot baseline | structure
0.12 | -0.2 | Cc1nc2nc(SCC(=O)O)nn2c(C)c1Cc1ccccc1Cl
2.3 | -1 | Cc1ccc(NC(=O)CCC(=O)NNC(=O)C(c2ccccc2)c2ccccc2)c(C)c1
0.8 | 0.34 | CC1CCN(C(=O)CN2C(=O)C(C)(C)Oc3ccc(C(=O)NC4CCCC4)cc32)CC1
1 | -1 | COc1ccc(Cc2nc3ccc(C(=O)NCCc4ccccn4)cc3o2)cc1OC
0.75 | 0.5 | O=C(CCn1cccn1)N1CCCC(N2CCN(c3cccc(C(F)(F)F)c3)CC2)C1 (stereo not given)
1.7 | -2.5 | CN1CCN(S(=O)(=O)c2ccc(N(C)CC(=O)Nc3ccc(F)cc3)nc2)CC1

Additional compounds:
KCNQ2 pot | KCNQ2 pot baseline | structure
1.5 | 0.67 | CCCCCC(=O)N(Cc1ccccc1)c1c(N)n(CCOC)c(=O)[nH]c1=O
0.32 | 1.6 | O=C(NCc1ccco1)C(c1ccccc1)N(Cc1cccnc1)C(=O)Cn1nnc2ccccc21 (stereo not given)
1.1 | 0.03 | COC(=O)C1=C(C)NC2=C(C(=O)CC(C)(C)C2)C1c1cccc(C)n1 (stereo not given)
0.05 | 0.81 | CC(C(=O)NCc1cccnc1)N1C(=O)c2ccccc2C1=O (stereo not given)
1.9 | 0.27 | CC(C)CN(C(=O)c1ccc(S(=O)(=O)N2CCCCC2)cc1)C1CCS(=O)(=O)C1 (stereo not given)
1.7 | -1.7 | Cc1nnc(NC(=O)CSc2ncc(-c3ccccc3)[nH]2)s1
0.68 | -1.4 | CCCc1nc2oc(C(=O)OCC)c(N)c2c2c1COC(C)(C)C2
0.95 | 0.86 | CCC1C(=O)N(C)CCc2ccccc21 (stereo not given)
0.65 | -1.6 | Cc1ccc(S(=O)(=O)N2CCC(C(=O)N3Cc4ccccc4C3)CC2)cc1
1.1 | -0.38 | O=C(CSc1nnc(-c2ccc(O)cc2)o1)Nc1ccccc1Br
0.01 | -0.77 | COc1cccc2c1OCC(CN1CCN(Cc3ccccc3)C(CCO)C1)=C2 (stereo not given)
1.1 | -0.5 | CSc1ccccc1NC(=O)Nc1ccc(F)c(Cl)c1
0.39 | 0.33 | C=CCn1c(SCC(=O)Nc2cccc(C(=O)OC)c2)nnc1C(C)NC(=O)c1cccs1 (stereo not given)
0.03 | 3.1 | Cc1ccc(C(=O)Nc2cc([N+](=O)[O-])ccc2C)cc1
1.7 | 0.84 | CCc1ccc(N2CC(C(=O)Nc3cccc(S(=O)(=O)N4CCCC4)c3)CC2=O)cc1 (stereo not given)
2 | -0.08 | CCN1CCN(C(CNC(=O)c2ccc3c(c2)OCO3)c2cccnc2)CC1 (stereo not given)
0.09 | 0.92 | O=C(N=C1SC2CS(=O)(=O)CC2N1c1ccc(Br)cc1)C1CCCO1 (stereo not given)
0.44 | 0.55 | CCOC(=O)c1sc(NC(=O)C2CC2)cc1C
0.41 | 0.5 | O=C(NCCCn1ccnc1)/C(=C\c1cccnc1)NC(=O)c1ccco1
1.2 | -0.59 | CCOc1ccc(/C=N/NC(=O)c2[nH]c3ccc(C)cc3c2C)cc1
0.2 | -2.3 | CC1CCc2sc(C(=O)NCc3ccc(F)cc3)cc2C1 (stereo not given)
1.3 | -0.15 | O=C(NN=C1CCCC1)c1cc(Cl)cc(Cl)c1O
0.41 | 0.11 | COc1cc(/C=N/NC(=O)Cn2nnc3ccccc32)ccc1O
0.68 | 3 | COC(=O)c1ccc(NC(=O)C2CCN(C(=O)c3cc(OC)c(OC)c(OC)c3)CC2)cc1
0.57 | -2 | CS(=O)(=O)c1cccc(-c2nnc(NC(=O)CCS(=O)(=O)c3ccccc3)o2)c1
0.69 | -0.84 | COc1ccccc1CC(=O)Nc1ccccc1C(=O)O
1.3 | -1.4 | O=C(Nc1ccc(C(=O)N2CCCCC2)cc1)c1ccc([N+](=O)[O-])cc1
0.68 | -2.1 | Cc1ccc(-n2ncc3c(=O)n(CC(=O)OCc4ccccc4)cnc32)cc1
1.2 | 0.64 | CN1CCN(C(=O)C2(NC(=O)NCc3ccccc3)CCCCC2)CC1
0.15 | 1.6 | CCOc1ncccc1C(=O)Nc1ccccc1C(=O)NCc1ccc2c(c1)OCO2
2.7 | -1.2 | O=C(Nc1c(C(=O)O)oc2ccc(Br)cc12)c1ccccc1
0.08 | -0.25 | CN(CC(=O)Nc1ccccc1Br)C(=O)COc1cccc2c1OC(C)(C)C2
2.4 | -0.72 | CCN(CC(=O)Nc1c(F)cccc1F)C(=O)CSCC(=O)Nc1cc(C)on1
0.07 | -1.5 | COc1ccc(C(=O)OCC(=O)NCc2ccccc2)c(OC)c1OC
0.01 | -1.4 | COc1ccc(OC)c(S(=O)(=O)NCc2ccccc2)c1
0.55 | 0.13 | Cc1cccc(C)c1NC(=O)COC(=O)CCC(=O)c1cccs1
0.5 | 0.78 | O=C1c2cc(F)ccc2-n2c1nc1ccccc1c2=O
1.4 | -0.43 | CCSC1(SCC)N=C(N)C2(C#N)C(c3ccccc3)NC3=C(CCC3)C12C#N (stereo not given)
0.04 | -0.64 | N#CC1=C2SCN(c3ccccc3)CN2C(=O)CC1c1cccs1 (stereo not given)
1.6 | -2.8 | Clc1ccc(/C=C/c2ncc[nH]2)c(Cl)c1
0.18 | -1.7 | CCCCn1c(CN2CCOCC2)nc2c1c(=O)n(C)c(=O)n2C
1.4 | -0.49 | COc1ccc(CCNC(=O)C2CCN(c3nccc(C)n3)CC2)cc1
1.6 | -0.9 | COc1ccc(COC(=O)C2=C(C)NC(=O)NC2c2ccc(F)cc2)cc1 (stereo not given)
0.6 | 0.44 | COC(=O)c1ccc(OCC(O)CN2CCc3cc(OC)c(OC)cc3C2c2ccccc2)cc1 (stereo not given)
0.84 | 0.75 | Cc1ccc(-c2nnn(CC(=O)N(c3cccc(O)c3)C(C(=O)NC(C)(C)C)c3cccs3)n2)o1 (stereo not given)
0.44 | -0.39 | CCOc1ccccc1-n1c(=S)sc2c(=O)n(-c3ccccc3)c(=S)[nH]c21
1.5 | 0.36 | Cc1cc(C)nc(Nc2n[nH]c(-c3ccccc3Cl)n2)n1
0.06 | -0.21 | CCCc1cc(=O)[nH]c2nnc(SCC(=O)NC3CCCCC3)n12
0.21 | 0.52 | O=C(CCC1CCCC1)N1CCN(S(=O)(=O)Cc2ccccc2)CC1
0.67 | 0.18 | CC1(CC(=O)O)C(=O)N=C2C=CC=CN21 (stereo not given)
1.2 | -0.22 | O=C(c1cc(-c2ccccc2)on1)N1CCCC1
0.95 | -0.12 | COCCNC(=O)c1onc(CSc2ccc(F)c(F)c2)c1C(=O)NCCOC
1.7 | 0.92 | COC(=O)[C@@H]1C[C@@]2(O)[C@@H](O)[C@@H](O)[C@@H](O)C[C@H]2N1CC1CCCCC1
2.4 | -0.43 | COc1cc(CN2CCC(Oc3cc(C(=O)NC4CC4)ccc3OC)CC2)cc(OC)c1
0.48 | -0.75 | CCOc1ccccc1N(CC(=O)Nc1ccccc1C(=O)N1CCOCC1)S(C)(=O)=O
0.1 | -0.2 | Cc1ccc(N/N=C/c2c(C)c(C#N)c(=O)n(C)c2O)cc1C

Reprinted at random: four records from the list
KCNQ2 pot | KCNQ2 pot baseline | structure
0.2 | -2.3 | CC1CCc2sc(C(=O)NCc3ccc(F)cc3)cc2C1 (stereo not given)
1.4 | -0.43 | CCSC1(SCC)N=C(N)C2(C#N)C(c3ccccc3)NC3=C(CCC3)C12C#N (stereo not given)
1.2 | 0.64 | CN1CCN(C(=O)C2(NC(=O)NCc3ccccc3)CCCCC2)CC1
1 | -1 | COc1ccc(Cc2nc3ccc(C(=O)NCCc4ccccn4)cc3o2)cc1OC

Going on with the list:
KCNQ2 pot | KCNQ2 pot baseline | structure
2.4 | -0.53 | CCN1CCN(c2cc(C)c3cc(NC(=O)CCC(=O)Nc4ccc(OC)c(OC)c4)ccc3n2)CC1
0.24 | 1.1 | Cc1c(C)c2c(OCC(=O)NCc3cccnc3)cc3c(c2oc1=O)CCC(C)(C)O3
0.07 | -0.12 | Cc1ccccc1NC(=O)NC(N)=O
1.4 | 1.4 | Cc1ccc(C(=O)O)cc1N1CCCC1=O
0.04 | 1.1 | CN(Cc1ccccc1)C(=O)C1CCN(S(C)(=O)=O)CC1
3.6 | -0.56 | Cc1ccc(SCC(=O)N/N=C/c2ccco2)cc1
1.6 | -0.52 | CC(C)(C)c1ccc(O)c(N=Cc2cc3c(cc2[N+](=O)[O-])OCO3)c1
0.46 | -1.1 | O=C(Nc1nc2ccc(Cl)cc2s1)c1cccc(N2C(=O)CCC2=O)c1
0.48 | 0.06 | O=C(CCN1CCOCC1)Nc1cccc(Br)c1
0.03 | -0.44 | CCOC(=O)c1cc(-c2cccnc2)nn1-c1ccccn1
1.4 | 1.6 | COc1cc(/C=C(\C#N)C(=O)NCC2CCCO2)ccc1OCCC(C)C (stereo not given)
0.03 | -0.67 | COc1ccccc1NC(=O)CSc1nnc(CNC(=O)c2ccco2)o1
1.2 | 0.38 | COc1ccccc1-c1cc(C(=O)N2CCCCC2)no1
2 | -0.76 | Cc1ccc(OCC(=O)NC(=S)Nc2cccc(NC(=O)c3ccccc3Cl)c2)cc1
1.2 | -0.02 | Cc1ccc(N2OC3C(=O)NC(=O)C3C2c2ccco2)cc1 (stereo not given)
0.95 | -0.12 | O=C(Nc1nnc(N2CCCCCC2)s1)c1cc(-c2ccc(Br)cc2)on1
0.17 | -0.5 | CCn1nc(NS(=O)(=O)c2ccccc2)c2cc3ccc(C)cc3nc21
0.81 | -0.07 | Cc1ccc(Cn2c(C3CCCN3c3nc(-c4ccc(F)cc4)cs3)nc3cc(C(=O)NCCCO)ccc32)cc1 (stereo not given)
0.27 | -0.67 | COc1ccc(OC)c(C(=O)C2COC(=O)C2)c1 (stereo not given)
1.3 | -0.88 | C[C@H]1C[C@H]2[C@@H]3CCC4=CC(=O)C=C[C@]4(C)[C@@]3(F)[C@@H](O)C[C@]2(C)[C@@]1(O)C(=O)CO
3.3 | -1.8 | COc1ccc(NC(=O)CC2Oc3ccc(C)cc3NC2=O)cc1 (stereo not given)
0.94 | 0.99 | Cc1cc(=O)oc2c(C)c(OCC(=O)N3CCN(c4cccc(Cl)c4)CC3)ccc12
0.93 | 1.5 | COc1ccc(OC)c(CN2CCN(C(=O)c3cccc(S(=O)(=O)Nc4ccc(C)cc4)c3)CC2)c1
0.67 | 0.2 | O=C(Cc1coc2ccc3ccccc3c12)N1CCc2ccccc21
1.2 | -1.4 | COc1ccc(OCC(=O)Nc2cccc(-c3nc4ccccc4o3)c2)cc1
1.9 | 0.7 | CCOC(=O)C1(Cc2ccccc2C)CCCN(C(=O)CN2CCCCC2=O)C1 (stereo not given)
6.6* | 0.03* | O=c1[nH]c(C(Cl)(Cl)Cl)nc2ccc3ccccc3c12
1.6 | -0.01 | N#Cc1cc2c(=O)n3ccccc3nc2n(-c2ccc(Cl)cc2)c1=O
0.12 | -1.5 | O=S(=O)(c1ccc(Br)cc1)N1CCN=C1SCc1cccc(F)c1
0.12 | 1.2 | COc1ccc(CCNC(=O)CSc2nc(O)cc(=O)[nH]2)cc1OC
0.65 | 0.13 | Cc1ccc(C(=O)C2CCN(C(=S)NCC3CCCO3)CC2)cc1 (stereo not given)
1.2 | 0.03 | Cc1c(NC(=O)c2cc(=O)[nH]c(=O)[nH]2)c(=O)n(-c2ccccc2)n1C
